3T3 cytotox: kills NIH 3T3 cells | Potency, µM (doses to about 96.7 µM), without a hit: top-dose activity change, negative = cytotoxicity, actives largely listed as inhibitors | NIH 3T3 viability, CellTiter-Glo ATP luminescence, 48-72 h | 94,000 tested, 4.3% active; note: nearly all actives have a fitted effect of over 55% in size
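Luminescent ATP readout (CellTiter-Glo, 10 min RT) after 48 or 72 hr compound exposure of NIH 3T3 cells seeded at 400 cells/well in 1536-well format; quantitative HTS.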
Luciferase inh: Photinus pyralis luciferase inhibition | P08659 | purified P. pyralis luciferase, luminescence, biochemical | Potency, µM (series often up to 115 µM), inactives show top-dose activity change, negative = inhibition, hits mostly inhibitors | 76,000 tested, 2.5% active; note: nearly all actives have a fitted effect of over 65% in size
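Inhibitors were tested against purified firefly luciferase in a biochemical, low-substrate format (both substrates at 10uM) and luminescence measured with a CCD imager.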
GPT2 inh: GPT2 alanine aminotransferase inhibition | Recombinant GPT2, coupled pyruvate oxidase/HRP Amplex Red fluorescence | Potency, µM (doses to about 57.7 µM), inactives show top-dose activity change, negative = inhibition, hits mostly inhibitors | 100,000 tested, 0.25% active | AID 1671188; note: nearly all actives have a fitted effect of over 60% in size; many of its hits are not listed in these tables
Target sequence (Q8TD30 whole entry, looked up): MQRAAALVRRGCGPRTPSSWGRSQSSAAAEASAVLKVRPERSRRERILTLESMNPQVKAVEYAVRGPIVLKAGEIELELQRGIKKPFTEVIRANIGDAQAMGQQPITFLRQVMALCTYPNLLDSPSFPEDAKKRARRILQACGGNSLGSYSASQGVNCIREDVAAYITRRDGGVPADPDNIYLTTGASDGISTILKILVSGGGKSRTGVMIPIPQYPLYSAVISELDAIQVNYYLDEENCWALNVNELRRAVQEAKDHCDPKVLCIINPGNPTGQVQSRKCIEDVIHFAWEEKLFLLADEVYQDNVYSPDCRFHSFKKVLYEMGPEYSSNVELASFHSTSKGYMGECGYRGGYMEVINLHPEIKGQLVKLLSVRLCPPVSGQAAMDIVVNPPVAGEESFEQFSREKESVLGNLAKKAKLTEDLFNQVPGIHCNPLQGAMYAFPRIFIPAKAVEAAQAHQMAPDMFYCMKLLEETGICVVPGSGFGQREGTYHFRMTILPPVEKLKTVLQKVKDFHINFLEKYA
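Inhibition is scored from Amplex Red fluorescence generated when pyruvate oxidase and HRP act on pyruvate released by GPT2. Reactions contain 10ng/uL enzyme, 250uM a-KG and 2mM L-alanine and run 30 min at room temperature.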
SNCA expr inhib: SNCA gene expression inhibition. HEK-293 SNCA-luciferase knock-in, luminescence, 24 h. Potency, µM (titrated, usually from 57.2 µM), inactives show at the highest dose activity change, negative = inhibition, actives largely listed as inhibitors. 140,000 tested, 0.17% active;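 note: plate controls were DMSO cells for no effect and cell-free wells for full effect; nearly all actives have a fitted effect of over 45% in size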
HEK cytotox: cytotoxic compounds in HEK 293 cells; HEK 293 viability, ATP luminescence (CellTiter-Glo), 48-72 h; Potency, µM (doses to about 115 µM), without a hit: top-dose activity change, negative = cytotoxicity, most hits filed as inhibitors; 94,000 tested, 6.6% active; note: nearly all actives have a fitted effect of over 60% in size
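qHTS cytotoxicity; HEK 293, 250 cells/well; compound pinned; 48 or 72 hr, 37 degree Celsius, 5% CO2, 95% humidity; CellTiter-Glo, 10 min RT; luminescence (ATP).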
SNCA viab count: counter-screen for SNCA expression inhibitors: cell viability; HEK-293-SNCA-luc viability, GF-AFC fluorescence, 24 h; Potency, µM (top dose mostly 57.1 µM), inactives show top-dose activity change, negative = cytotoxicity, hits mostly cytotoxic; 150,000 tested, 0.12% active;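 note: 0% = DMSO-treated cells and -100% = medium-only wells without cells; nearly all actives have a fitted effect of over 30% in size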
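Cytotoxicity counterscreen: after 24 h compound treatment of genome-edited SNCA-luciferase HEK-293 cells, live-cell protease substrate GF-AFC read by fluorescence after 30 min; activity scaled between DMSO (0%) and medium-only (-100%), curves Hill-fitted.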
Numbers without * were called inactive; i = inactive; ? = inconclusive; / = no result given; [ ] = dose if it differs, or a comment. Calls come from the whole dose curve; as a rule, active = well fitted curve in the direction sought with a large enough effect; inconclusive = small, poorly fitted or top-dose-only effect, or another doubt; inactive = no such curve, though single readings can be large; an effect the other way counts as inactive or inconclusive. Unless noted, % is set by controls: 0 for no effect and ±100 for the full control effect; potency is the fitted concentration of half-maximal effect. An excerpt; the hit share may differ from the screen's.

| structure | 3T3 cytotox | Luciferase inh | GPT2 inh | SNCA expr inhib | HEK cytotox | SNCA viab count |
| --- | --- | --- | --- | --- | --- | --- |
| Cc1ccc(-n2c3c(c(=O)[nH]c2=O)C(NC(=O)C(C)(C)C)(C(F)(F)F)C(=O)N3)cc1 (centres undefined) | / | / | / | ? | / | -9% |
| Fc1cc(Nc2ncc(-c3cccnc3)c3c2OCC3)cc(N2CCOCC2)c1 | ? | ? | i | ? | ? | -4%[87.6 µM] |
| CCOC(=O)c1c(NC(=O)CS(=O)(=O)c2ccc(C)cc2)sc2c1CCC(C)C2 (centres undefined) | / | / | / | -9% | / | 5% |
| CC(C)COc1cccc(C(=O)Nc2ccc(-c3nc4ncccc4o3)cc2)c1 | / | / | / | 26% | / | 6% |
| CC1=C(C(=O)Nc2cccnc2)C(c2ccc(F)cc2)n2nc(SCc3ccccc3)nc2N1 (centres undefined) | / | / | / | -21% | / | 5% |
| COc1cccc([S+](=O)([O-])N2CCC3(CC2)CNC(=O)c2ccccc2O3)c1 | ? | -4% | 4% | ? | ? | 9% |
| CC(NC(=O)C(=O)Nc1c2c(nn1-c1ccccc1)CSC2)c1ccccc1 (centres undefined) | / | / | / | -7% | / | 7% |
| CC(C)CC(C(=O)NCCc1ccccc1)N1Cc2ccccc2C1=O (centres undefined) | / | / | / | -9% | / | -24% |
| Cc1cc2c(cc1S(=O)(=O)Nc1cccc(C(F)(F)F)c1)OCCN2C | / | / | / | 3% | / | -28% |
| Nc1nc2c(s1)C(c1ccc(F)cc1F)CC(=O)N2 (centres undefined) | -23% | ? | ? | 37%[activator] | 6% | 1% |
| CC(C)CNC(=O)CCSc1nc(-c2ccc3c(c2)OCO3)cc(C(F)(F)F)n1 | / | / | / | 1% | / | -3% |
| O=C(NC1CCCCC1)O[C@@H]1CO[C@H]2[C@@H]1OC[C@@H]2n1nnnc1SCc1ccco1 | -1% | -10% | i | -4% | ? | 2% |
| COc1ccccc1N1CCN(C(CNC(=O)C(=O)NCc2cccnc2)c2cccnc2)CC1 (centres undefined) | / | / | / | 7% | / | 5% |
| Cc1nc(-n2nc(C)c(CCC(C)C)c2C)sc1C(=O)Nc1ccc(Cl)cc1 | / | / | / | 66%[activator] | / | -3% |
| CO[C@@]1(NC(=O)C(C(=O)O)c2ccc(O)cc2)C(=O)N2C(C(=O)O)=C(CSc3nnnn3C)CO[C@@H]21 (some centres undefined) | / | / | 1% | -30%[25.6 µM] | / | -22%[23.9 µM] |
| COc1ccc(-c2[nH]nc3ncc(C(=O)NCc4ccccc4)nc23)c(C)c1 | ? | -9%[172 µM] | -18%[88.5 µM] | ? | ? | ? |
| Cc1cccc(-c2nc(CCNC(=O)c3ccccc3Br)cs2)c1 | / | / | / | 4% | / | 10% |
| COc1ccccc1CCNC(=O)C1CCN(c2nc3ccccc3nc2C(F)(F)F)CC1 | / | / | / | 10% | / | -1% |
| CCc1ccc(-n2c(SCc3ccccc3C)nc3[nH]ncc3c2=O)cc1 | / | / | / | ? | / | -7% |
| COc1ccccc1N1CCN(C(CNC(=O)C(=O)NCCCN(C)C)c2cccnc2)CC1 (centres undefined) | / | / | / | -5% | / | -5% |
| Cn1cccc1C(=O)N1CCC(c2noc(COc3ccc(F)cc3)n2)CC1 | ? | -1% | i | -27% | ? | 6% |
| COc1ccccc1CCNC(=O)Cc1c(C)c2c(cc(C)c3c(C)coc32)oc1=O | / | / | / | 2% | / | 4% |
| O=C(N[C@H]1C[C@@H](CO)N(Cc2cccs2)C1)c1cccnc1 | -24% | -1% | -13% | -22% | 4% | -3% |
| Cc1cccc(-c2nc(CCNC(=O)c3ccco3)cs2)c1 | / | / | / | 25% | / | -5% |
| Cc1ccccc1NC(=O)C(=O)NCC1(c2ccccc2)CCCC1 | / | / | / | -22% | / | 0% |

Random excerpt: 3 entries already listed
| structure | 3T3 cytotox | Luciferase inh | GPT2 inh | SNCA expr inhib | HEK cytotox | SNCA viab count |
| --- | --- | --- | --- | --- | --- | --- |
| CC(C)CC(C(=O)NCCc1ccccc1)N1Cc2ccccc2C1=O (centres undefined) | / | / | / | -9% | / | -24% |
| Cc1ccccc1NC(=O)C(=O)NCC1(c2ccccc2)CCCC1 | / | / | / | -22% | / | 0% |
| COc1ccc(-c2[nH]nc3ncc(C(=O)NCc4ccccc4)nc23)c(C)c1 | ? | -9%[172 µM] | -18%[88.5 µM] | ? | ? | ? |

The list continues:
| structure | 3T3 cytotox | Luciferase inh | GPT2 inh | SNCA expr inhib | HEK cytotox | SNCA viab count |
| --- | --- | --- | --- | --- | --- | --- |
| CC(=O)Nc1ccc(NS(=O)(=O)c2ccc3c(c2)CC(C)N3C(=O)C2CCC2)cc1 (centres undefined) | / | / | / | -5% | / | -11% |
| CN1CCCN(C(=O)c2cccs2)c2ccccc21 | -1% | -6% | 3% | -25% | -5% | 0% |
| COCCCNC(=O)c1cnc2n[nH]c(-c3ccc(OC)cc3C)c2n1 | ? | -9%[172 µM] | 0%[88.5 µM] | ? | ? | -23%[87.6 µM] |
| CCn1c(=N)c(C(=O)NCc2ccccc2)cc2c(=O)n3cc(C)ccc3nc21 | / | / | / | 62%[activator] | / | ? |
| CCOc1ccc(OCC)c(NC(=O)CN(C)S(=O)(=O)c2ccc3c(c2)CCCC(=O)N3)c1 | / | / | / | -3% | / | -15% |
| Cc1ccc(NC(=O)CCc2nnc3n(CC(C)C)c(=O)c4ccccc4n23)cc1C | / | / | / | 23% | / | -13% |
| Cc1noc(C)c1[S+](=O)([O-])N1CCn2c(nn(-c3ccc(F)cc3F)c2=O)C1 | -10% | 7% | 1% | 4% | -6% | 7% |
| COc1ccccc1N1CCN(C(CNC(=O)C(=O)NCCc2ccccc2)c2cccnc2)CC1 (centres undefined) | / | / | / | -7% | / | -11% |
| Cc1cccc(-c2nc(CCNC(=O)c3ccc(Br)o3)cs2)c1 | / | / | / | 4% | / | 11% |
| O=C(NCc1cccc(F)c1)c1cnc2c(c1)N(Cc1ccccc1)CCC2 | ? | 6%[172 µM] | -9%[88.5 µM] | ? | ? | 0%[87.6 µM] |
| Cc1cccc(-c2nc(CCNC(=O)Cc3ccccc3)cs2)c1 | / | / | / | 0% | / | 35% |
| Cc1ccc(CNc2nccn(-c3cc(C)cc(C)c3)c2=O)cc1 | / | / | / | -13% | / | -3% |
| O=C(c1cccs1)N1CCCc2cc(NS(=O)(=O)c3ccc(Cl)cc3)ccc21 | / | / | / | 5% | / | -10% |
| COc1ccc(C2C(C(=O)Nc3cccnc3)=C(C)Nc3nc(-c4ccccc4)nn32)cc1OC (centres undefined) | / | / | / | -6% | / | -3% |
| COc1ccc(Cn2ccc3nc(C)c(C(=O)Nc4ccc(OC)cc4)cc3c2=O)cc1 | / | / | / | -27% | / | -1% |
| Cc1cc(C)c2c(=O)cc(C(=O)Nc3ccc(C)c(Cl)c3)oc2c1 | / | / | / | 96%[activator] | / | -3% |
| O=C(NCC(c1cccnc1)N1CCN(c2ccccc2F)CC1)C(=O)Nc1ccc(F)cc1F (centres undefined) | / | / | / | 13% | / | 5% |
| COC(=O)c1c(NC(=O)CCCOc2ccccc2)sc2c1CCC(C)C2 (centres undefined) | / | / | / | 20% | / | 7% |
| CCOC(=O)c1c(NC(=O)c2cc3ccccc3c(=O)o2)sc2c1CCC(C)C2 (centres undefined) | / | / | / | 17% | / | 12% |
| Cc1cc(C)cc(Nc2nc(C)cc(=O)n2CC(=O)NC(C)CCc2ccccc2)c1 (centres undefined) | -29% | 0% | 4% | -26% | ? | -6% |
| O=C(c1cccs1)N1CCCc2cc(NS(=O)(=O)c3ccc(F)cc3F)ccc21 | / | / | / | 17% | / | -3% |
| COc1cccc(NC(=O)CCc2nnc3n(CC(C)C)c(=O)c4ccccc4n23)c1 | / | / | / | -10% | / | -17% |
| CCOc1ccc(NC(=O)CSc2oc(-c3ccc(C)cc3)nc2S(=O)(=O)c2ccc(C)cc2)cc1 | / | / | / | 17% | / | 5% |
| Cc1nn(C)c(C)c1C(=O)NCCn1c(C)cnc1C1CCC1 | -7% | 0% | i | ? | 14% | -8% |
| COc1ccccc1N1CCN(CC(O)COc2cc(C)cc(C)c2)CC1 (centres undefined) | / | / | / | -12% | / | 5% |

A second format for part of the listing above.
Cc1nn(C)c(C)c1C(=O)NCCn1c(C)cnc1C1CCC1
  3T3 cytotox: -7%
  Luciferase inh: 0%
  GPT2 inh: i
  SNCA expr inhib: ?
  HEK cytotox: 14%
  SNCA viab count: -8%
Cc1cc(C)cc(Nc2nc(C)cc(=O)n2CC(=O)NC(C)CCc2ccccc2)c1 (centres undefined)
  3T3 cytotox: -29%
  Luciferase inh: 0%
  GPT2 inh: 4%
  SNCA expr inhib: -26%
  HEK cytotox: ?
  SNCA viab count: -6%
COc1cccc(NC(=O)CCc2nnc3n(CC(C)C)c(=O)c4ccccc4n23)c1
  3T3 cytotox: /
  Luciferase inh: /
  GPT2 inh: /
  SNCA expr inhib: -10%
  HEK cytotox: /
  SNCA viab count: -17%
CCOc1ccc(NC(=O)CSc2oc(-c3ccc(C)cc3)nc2S(=O)(=O)c2ccc(C)cc2)cc1
  3T3 cytotox: /
  Luciferase inh: /
  GPT2 inh: /
  SNCA expr inhib: 17%
  HEK cytotox: /
  SNCA viab count: 5%

(next part)
| structure | 3T3 cytotox | Luciferase inh | GPT2 inh | SNCA expr inhib | HEK cytotox | SNCA viab count |
| --- | --- | --- | --- | --- | --- | --- |
| CCOCCCn1c(=N)c(C(=O)NCc2ccccc2)cc2c(=O)n3ccccc3nc21 | / | / | / | 13% | / | ? |
| COc1ccc(CCN2C(=O)N(c3ccc(F)cc3)C(=O)C2CC(=O)Nc2ccc(OC)cc2)cc1 (centres undefined) | / | / | / | -21% | / | -6% |
| COc1ccc(C2NC(=O)N(C)C3=C2C(=O)N(c2ccc(C)cc2)C3)cc1 (centres undefined) | / | / | / | 30% | / | 13% |
| Cc1ccc(-c2noc(-c3cccnc3NCc3ccco3)n2)cc1 | / | / | / | 45%[activator] | / | 3% |
| O=C(NC1(C(F)(F)F)C(=O)Nc2c1c(=O)[nH]c(=O)n2-c1ccc(F)cc1)c1ccccc1 (centres undefined) | / | / | / | 6% | / | -4% |
| COc1ccc(C(=O)NCC(c2ccc3c(c2)OCO3)N2CCN(C)CC2)cc1OC (centres undefined) | / | / | / | 29% | / | 13% |

Compound activity from PubChem.
